Source: PubChem (ICCB-Longwood Screening Facility, Harvard Medical School)
GIV-Gai inh – inhibitors of GIV peptide binding to Galpha-i3, primary screen, biochemical, fluorescence polarization, FITC-GIV GBA peptide, rat Galphai3; 90 min; hits give low values; scaled: aluminum fluoride 0%, vehicle 100%; percent of control (FP), % (no concentration beside the values); 210,000 tested, 0.42% active; AID 1224905, 2016;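 active means replicate mean at 85% of control or lower, very high polarization wells dropped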;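 further: wells of about 15 µL received 100 nL stock; the first replicate is given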
Target sequence (P08753 whole entry, looked up): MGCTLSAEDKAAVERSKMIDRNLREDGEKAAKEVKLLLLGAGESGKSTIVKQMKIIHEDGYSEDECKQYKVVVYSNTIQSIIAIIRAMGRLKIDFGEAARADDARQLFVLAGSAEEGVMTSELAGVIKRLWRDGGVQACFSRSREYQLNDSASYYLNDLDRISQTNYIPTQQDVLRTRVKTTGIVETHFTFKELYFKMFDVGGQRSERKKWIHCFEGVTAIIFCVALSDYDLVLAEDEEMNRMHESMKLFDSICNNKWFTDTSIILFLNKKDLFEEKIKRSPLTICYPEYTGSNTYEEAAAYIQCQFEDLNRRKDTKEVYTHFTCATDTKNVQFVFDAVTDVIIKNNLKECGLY
Active calls of the source: *. A portion of the library; rates above refer to the full screens.

SMILES	GIV-Gai inh
CC(=O)Nc1ccc(-c2cc(C(=O)NC3CCCC3)c3cc(C)ccc3n2)cc1	105
COc1ccc(-c2ncc3c(=O)n(CC(=O)NC4CCCCC4)c(=O)n(C)c3n2)cc1	101
Clc1ccc(-c2cs/c(=N\c3ccccn3)n2-c2ccccc2)cc1	117
CCc1ccc(NC(=O)c2cc(S(=O)(=O)N3CCc4ccccc43)ccc2F)cc1	110
CCOc1ccc(S(=O)(=O)N2CCCC(C)(C(=O)NCc3ccc(F)cc3)C2)cc1 (stereo not given)	103
Cc1nn(-c2ccccc2)c2sc(C(=O)OCc3ccc4c(c3)OCO4)cc12	106
CC1CCN(c2ccc(-c3noc(CCC(=O)N4CCN(C5CCCCC5)CC4)n3)cc2)CC1	99
CCc1ccc(-n2nc(C)c3c2NC(=O)CC3C(=O)c2cc(C)sc2C)cc1 (stereo not given)	101
COC(=O)c1ccc(NC(=O)CSc2nnc(NC(=O)Nc3ccccc3)s2)cc1	101
O=C(Nc1ccc2c(c1)OCO2)c1cccc(Nc2ncc(-c3cccc(F)c3)cn2)c1	102
CCCCNc1nc(SCC(=O)NCCC(C)C)nc2ccccc12	114
CCOC(=O)c1[nH]c(C)c(CN(CC2CCCO2)C(=O)C2CCC2)c1C (stereo not given)	103
C=CCn1c(=O)c2sc(N(CC)CC)nc2n(CC(=O)Nc2ccc3c(c2)OCO3)c1=O	101
Cc1c(CCNC(=O)c2cccc(F)c2)sc2nc(-c3ccc(F)cc3)nn12	98
O=C(Nc1sc2c(c1-c1nc3ccccc3s1)CCCC2)c1ccc(S(=O)(=O)N2CCOCC2)cc1	126
Cc1ccc(-c2ncc3c(=O)n(Cc4cccnc4)c(=O)n(C)c3n2)cc1	101
CCOC(=O)C1=C(C)NC2=C(C(=O)c3ccccc32)C1c1cc(OC)c(OC)c(OC)c1 (stereo not given)	114
COc1ccc(N2CCN(S(=O)(=O)c3cc(C(=O)Nc4ccc(C(C)C)cc4)ccc3F)CC2)cc1	110
CC1(C)CC(=O)C2=C(C1)Nc1[nH]c(=O)[nH]c(=O)c1C2c1ccc(Cl)cc1 (stereo not given)	115
CN1CCN(C(=O)C2CCCN(c3nnc4ccc(Cl)cn34)C2)CC1 (stereo not given)	103

Reprinted from the part before: 2 compounds, followed by the next part.
SMILES	GIV-Gai inh
CC1(C)CC(=O)C2=C(C1)Nc1[nH]c(=O)[nH]c(=O)c1C2c1ccc(Cl)cc1 (stereo not given)	115
CN1CCN(C(=O)C2CCCN(c3nnc4ccc(Cl)cn34)C2)CC1 (stereo not given)	103
O=C(NC1CC1)c1ccc(-c2nc(-c3ccc(Cl)cc3)no2)cc1	104
Cc1ccc(N2C(=O)/C(=C/c3ccc(-c4cc(Cl)ccc4Cl)o3)C=C2c2ccccc2)c(C)c1	115
COc1ccc(C2(CNC(=O)/C=C/c3ccccc3)CCOCC2)cc1OC	112
COc1ccc(-n2ncc3c(NCCc4ccc(OC)c(OC)c4)ncnc32)cc1	105
COc1ccc(C2=Nc3ccccc3N=C(c3cc(Cl)ccc3O)C2)cc1	104
c1nc2c(c(N3CCC(N4CCCCC4)CC3)n1)CCC2	102
CCCCCCCCOc1ccc(-c2ncc(CCCCCCC)cn2)cc1	109
COc1cc(OC)cc(C(=O)N2CCN(C(=O)c3cc4cc(Cl)ccc4[nH]3)CC2)c1	97
CCOC(=O)Oc1ccc2c(=O)c(Oc3ccc(OC)cc3)c(C(F)(F)F)oc2c1	106
Cc1nn(-c2ccc(-c3ccccc3)nn2)c(C)c1S(=O)(=O)NCc1ccc(F)cc1F	105
CC(C)(C)NC(=O)CSc1nnc(-c2ccccc2)c(-c2ccccc2)n1	102
Cc1cccc(C(=O)N2CCN(Cc3noc(-c4ccccc4)n3)CC2)c1C	98
COc1cc(NC(=O)N2CCCC2c2cc(C(C)C)no2)cc(OC)c1OC (stereo not given)	101
O=C1Nc2cc(S(=O)(=O)Nc3cccc(Cl)c3)ccc2SCC1CC(=O)N1CCCC1 (stereo not given)	106
Cc1ccc(C(O)(C(=O)NNc2ccccc2C)c2ccc(C)cc2)cc1	116
CN1C(=O)N(C)C2C1NNC(=S)N2C (stereo not given)	115
COc1cccc(-n2nnc3c(N4CCN(C(=O)C5CCCO5)CC4)ncnc32)c1 (stereo not given)	100
CCCOc1ccc(-c2noc(Cc3nc(-c4ccc5c(c4)OCO5)cs3)n2)cc1	99
c1ccc2c(c1)Cn1c-2nc2ccccc21	104
CCOC(=O)C1=NN(c2cccc(Cl)c2)C2(Nc3ccccc3S2)S1 (stereo not given)	107
CC1(C)OC2OC(C(=O)Nc3ccc(F)cc3F)C3OC(C)(C)OC3C2O1 (stereo not given)	102
Cc1cc(NC(=O)CSc2ccc(-n3cnc(C(=O)NC(C)C)c3)nn2)no1	108
COc1ccc(C2=CC(c3cc(Br)ccc3F)n3ncnc3N2)cc1 (stereo not given)	106
Cc1ncc2c(n1)CCN(S(=O)(=O)c1cccc3nsnc13)C2	97
CN1CC(=O)N(CC(=O)N2CCc3ccccc32)c2ccccc2C1=O	106
O=C(Nc1ccc2c(c1)OCO2)c1nnc(C2CCN(S(=O)(=O)c3ccccc3Cl)CC2)s1	99
CCOc1ccc2c(c1)C(=NNC(=O)c1ccccn1)c1cc(OCC)ccc1-2	114
COc1cccc(C2=NN3C(C2)c2cccc(OC)c2OC3c2ccc(F)c(F)c2)c1 (stereo not given)	106
O=c1ccc(-c2ccccc2)nn1CCc1nc(-c2cccc(Cl)c2)no1	102
Cc1nc2cc(C(=O)NCc3ccccn3)ccc2n1-c1ccc(Br)cc1	116
CCOC(=O)Cc1nnc2c(Nc3ccccc3Cl)nc3nonc3n12	105
O=S(=O)(NC1CCCC1)c1cccc(-c2nc(-c3ccccc3)no2)c1	101
CCOC(=O)c1c(NC(=O)CSc2nnc(CNC(=O)c3ccc(OC)cc3)n2C)sc2c1CCC2	104
O=C(Nc1cccc(F)c1)N1CCN(Cc2cc(=O)n3nc(-c4cccc(F)c4)sc3n2)CC1	101
O=C1N(CN2CCN(c3ccccc3)CC2)c2ccccc2C12OCCO2	112
O=C(Cn1nc2c3sccc3ncn2c1=O)Nc1ccc(Br)cc1	99
C=CCn1c(SCC(=O)Nc2ccccc2)nc2sc(C)c(C)c2c1=O	99
C=CCOC(=O)C1=C(C)NC(C)=C(C(=O)OCC=C)C1c1cn(-c2ccccc2)nc1-c1ccc([N+](=O)[O-])cc1	115
CCOC(=O)C1=C(CSc2nc(-c3cccs3)ccc2C#N)OC(N)=C(C#N)C1c1ccccc1I (stereo not given)	135
Cc1ccc(NC(=O)c2ccccc2NC(=O)c2cccc(S(=O)(=O)N3CCCCCC3)c2)c(C)c1	104
O=S(=O)(Nc1ccc(-c2noc(-c3ccc(Br)cc3)n2)cc1)c1cccs1	103
Cc1cccc(C(=O)N2CCc3c([nH]c4ccccc34)C2c2ccc(Cl)cc2)c1 (stereo not given)	103
COc1ccc(N=C2NC(=O)/C(=C/c3c(OC)ccc4ccccc34)S2)cc1	104
CCCS(=O)(=O)c1c(S(=O)(=O)CCC)c2c3ccccc3ccn2c1C(=O)c1ccc(C)cc1	116
Cc1nc2c(sc3nc4c(cc32)COC(C)(C)C4)c(=O)o1	112
COC(=O)c1ccccc1NC(=O)N1CCN(Cc2cc(=O)n3nc(-c4ccccc4F)sc3n2)CC1	102
O=C(Nc1cccc([N+](=O)[O-])c1)/C(=C/c1cccc([N+](=O)[O-])c1)NC(=O)c1ccccc1Br	106
COc1cccc(-c2[nH]ncc2CN2CCCC2c2cc(C)on2)c1 (stereo not given)	100
CC(C)Cn1c(=O)c(-c2ccc(C(=O)N3CCN(C)CC3)cc2)nc2ccccc21	95
COc1ccc(-c2noc(-c3cn(CC(=O)NCc4ccc(C)cc4)c4nc(C)ccc4c3=O)n2)cc1	174
O=S(=O)(c1cccc(F)c1)N1CCC(c2noc(-c3ccccc3)n2)CC1	99
O=C(CN1c2ccccc2NC2=C(C(=O)CCC2)C1c1ccco1)NC1CCCCCC1 (stereo not given)	105
O=C(c1noc2ccc(S(=O)(=O)N3CCN(c4ccc(F)cc4)CC3)cc12)N1CCCC1	106
COc1ccc(OC)c(NC(=O)c2cc3nc(-c4ccc(OC)c(OC)c4)cc(C(F)(F)F)n3n2)c1	112
Cc1ccc(N2C(=O)Nc3ccccc3S2(=O)=O)cc1Cl	101
CCOC(=O)C1=C(O)/C(=C/c2ccc(O)c(OC)c2)SC1=Nc1ccccc1	104
Cc1cc(C)c(NC(=O)CSC2=C(C#N)C(c3ccc(C)o3)C3=C(CCCC3=O)N2)c(C)c1 (stereo not given)	103
COc1ccc(NS(=O)(=O)c2cc(-c3nnc(C(=O)N4CCCC4)o3)cs2)cc1OC	101
O=c1c2c([nH]c3ccc(Cl)cc13)CCN(Cc1ccc(F)cc1)C2	116
COc1ccc(Cl)cc1NC(=O)Cn1ncn2nc3c(c2c1=O)CCCC3	102

Continuation:
SMILES	GIV-Gai inh
CC(=O)Nc1cccc(Oc2nnc(Oc3cccc(NC(C)=O)c3)c3ccccc23)c1	102
COc1ccc2c(c1)-c1c(ssc1=S)C(C)(C)N2C(=O)c1ccccc1OC	106
O=C1NC(=O)C(=Cc2cc(Br)ccc2OCc2ccc([N+](=O)[O-])cc2)C(=O)N1	105
CCCCC1(CCCC)NC(=S)N(c2ccc(C)cc2)N1	109
CCc1ccc(-n2c(SCc3cc(=O)n4cc(Br)ccc4n3)nc3[nH]ncc3c2=O)cc1	101
Cc1cccc(N2CC(O)(c3cccc([N+](=O)[O-])c3)[N+]3=C2SCCC3)c1 (stereo not given)	101
CCOc1cc(C2C(C(=O)OCc3ccccc3)=C(C)NC3=C2C(=O)CC(c2cccs2)C3)cc([N+](=O)[O-])c1O (stereo not given)	114
COc1cc(/C=C2/N=C(c3cc([N+](=O)[O-])ccc3OC)OC2=O)ccc1OC(C)=O	122
O=S(=O)(c1cc(F)ccc1F)N1CCN(c2ncnc3c2nnn3-c2ccc(F)cc2)CC1	98
O=C(NN1S(=O)(=O)c2ccccc2S1(=O)=O)c1ccc(OCc2ccccc2Br)cc1	127
Cc1cc(C2CCCN2C(=O)c2c(Cl)cnn2C)on1 (stereo not given)	98
OC[C@H]1O[C@@H](Oc2ccc3ccccc3c2)[C@H](O)[C@@H](O)[C@@H]1O	124
CC(C)N1CCN(C(=O)C2CCN(c3cncnc3N3CCOCC3)CC2)CC1	100
CC(=O)Nc1ccc(-c2cc(C(=O)NCCc3c[nH]c4ccccc34)c3ccccc3n2)cc1	104
Cc1c(Br)c([N+](=O)[O-])nn1CC(=O)Nc1cc(Oc2cccnc2)cc([N+](=O)[O-])c1	104
O=C(CCc1nc(CSc2nnc(-c3ccccc3)o2)no1)Nc1ccccc1	100
CCOC(=O)C1=C(O)/C(=C/c2ccccc2)SC1=Nc1ccccc1	112
O=C(NC1CCN(c2ncnc3c2CCC3)C1)C1(c2ccccc2)CC1 (stereo not given)	98
Cc1ccc(N2C(=O)c3ccccc3NC2c2ccc(Br)cc2)cc1Cl (stereo not given)	107
COCCCNC(=O)c1ccc2c(c1)nc1n2CCOC1	98
CCNC(=O)NC1CCN(C(=O)C2CC2)C1 (stereo not given)	97
Cc1ccc(CNC(=O)c2cc3n(n2)CCCC3)o1	100
COc1cc2[nH]c3c(SCC(N)=O)ncnc3c2cc1OC	106
Cc1ccc(NC(=O)c2nnc(C3CCCN(S(=O)(=O)c4c(C)n[nH]c4C)C3)s2)cc1 (stereo not given)	107
CCOc1ccc(NC(=O)CN2C(=O)/C(=C3\SC(=S)N(C4CCS(=O)(=O)C4)C3=O)c3ccccc32)cc1 (stereo not given)	110
Nc1c(C(=O)Nc2cccc(C(F)(F)F)c2)sc2nc(-c3cccs3)ccc12	109
CCOc1ccc(C(=O)Nc2ccc(-c3nc4cc(C)cc(C)c4o3)cc2)cc1[N+](=O)[O-]	100
O=C(Nc1ccc(Oc2ccc3ccccc3c2Cl)c(Cl)c1)c1cc(Cl)cc(I)c1O	111
CCOC(=O)C1=C(c2ccccc2)N=c2s/c(=C\c3ccco3)c(=O)n2C1c1ccc(OCC)cc1 (stereo not given)	219
CC(=O)Nc1ccc2nc(N3CCC(C(=O)N4CCN(c5ccccc5F)CC4)CC3)cc(C)c2c1	101
CCCc1oc2ccc(NS(=O)(=O)c3ccc4c5c(cccc35)C(=O)N4)cc2c1C(=O)OCC	99
CN(C)S(=O)(=O)c1ccc(-c2noc(C(=O)NCC3CCCO3)n2)cc1 (stereo not given)	105

Grouped by structure: those above containing a Cl atom
SMILES	GIV-Gai inh
Clc1ccc(-c2cs/c(=N\c3ccccn3)n2-c2ccccc2)cc1	117
CC1(C)CC(=O)C2=C(C1)Nc1[nH]c(=O)[nH]c(=O)c1C2c1ccc(Cl)cc1 (stereo not given)	115
CN1CCN(C(=O)C2CCCN(c3nnc4ccc(Cl)cn34)C2)CC1 (stereo not given)	103
O=C(NC1CC1)c1ccc(-c2nc(-c3ccc(Cl)cc3)no2)cc1	104
Cc1ccc(N2C(=O)/C(=C/c3ccc(-c4cc(Cl)ccc4Cl)o3)C=C2c2ccccc2)c(C)c1	115
COc1ccc(C2=Nc3ccccc3N=C(c3cc(Cl)ccc3O)C2)cc1	104
COc1cc(OC)cc(C(=O)N2CCN(C(=O)c3cc4cc(Cl)ccc4[nH]3)CC2)c1	97
O=C1Nc2cc(S(=O)(=O)Nc3cccc(Cl)c3)ccc2SCC1CC(=O)N1CCCC1 (stereo not given)	106
CCOC(=O)C1=NN(c2cccc(Cl)c2)C2(Nc3ccccc3S2)S1 (stereo not given)	107
O=C(Nc1ccc2c(c1)OCO2)c1nnc(C2CCN(S(=O)(=O)c3ccccc3Cl)CC2)s1	99
O=c1ccc(-c2ccccc2)nn1CCc1nc(-c2cccc(Cl)c2)no1	102
CCOC(=O)Cc1nnc2c(Nc3ccccc3Cl)nc3nonc3n12	105
Cc1cccc(C(=O)N2CCc3c([nH]c4ccccc34)C2c2ccc(Cl)cc2)c1 (stereo not given)	103
Cc1ccc(N2C(=O)Nc3ccccc3S2(=O)=O)cc1Cl	101
O=c1c2c([nH]c3ccc(Cl)cc13)CCN(Cc1ccc(F)cc1)C2	116
COc1ccc(Cl)cc1NC(=O)Cn1ncn2nc3c(c2c1=O)CCCC3	102
Cc1cc(C2CCCN2C(=O)c2c(Cl)cnn2C)on1 (stereo not given)	98
Cc1ccc(N2C(=O)c3ccccc3NC2c2ccc(Br)cc2)cc1Cl (stereo not given)	107
O=C(Nc1ccc(Oc2ccc3ccccc3c2Cl)c(Cl)c1)c1cc(Cl)cc(I)c1O	111
